D2 potentiator: Beta-Arrestin HTS for Positive Allosteric Modulators of the Human D2 Dopamine Receptor: Potentiators; DiscoveRx D2 beta-arrestin cells, luminescence, 90 min; 100% = 57 uM dopamine signal; potentiation, % (concentration not given with the values); 360,000 tested, 0.23% active; AID 624464, 2012; D(2) dopamine receptor (Homo sapiens), P14416; active = potentiation of 50% or more; inconclusive = 30% to 50%; inactive = 30% or less;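 also: compound concentration not given in the record; tested on top of an EC20 dose of dopamine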
Target sequence (P14416 whole entry, looked up): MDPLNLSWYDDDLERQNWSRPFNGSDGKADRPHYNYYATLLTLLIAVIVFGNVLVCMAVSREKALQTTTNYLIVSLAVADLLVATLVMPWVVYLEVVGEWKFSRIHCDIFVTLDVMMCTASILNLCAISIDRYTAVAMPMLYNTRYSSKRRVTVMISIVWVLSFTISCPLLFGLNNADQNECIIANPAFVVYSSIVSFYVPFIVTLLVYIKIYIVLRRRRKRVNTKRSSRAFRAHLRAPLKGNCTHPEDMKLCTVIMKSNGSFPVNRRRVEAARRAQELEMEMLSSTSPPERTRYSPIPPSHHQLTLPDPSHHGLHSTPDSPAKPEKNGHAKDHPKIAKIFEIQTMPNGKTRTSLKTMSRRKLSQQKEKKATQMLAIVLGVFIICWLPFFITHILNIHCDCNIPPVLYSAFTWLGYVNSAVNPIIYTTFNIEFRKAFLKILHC
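D2 cells co-treated with compound plus 50 nM dopamine (EC20) for 90 min at 37 deg C to detect potentiation. Beta-arrestin recruitment was read as enzyme-fragment luminescence after 1 h at ambient temperature. Full response was set by 57 uM dopamine.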
TRPML1 blocker: qHTS for Inhibitors of the Human Mucolipin Transient Receptor Potential 1 (TRPML1) | Mucolipin-1 (Homo sapiens), Q9GZU1 | TRPML1-inducible cells, Ca2+ dye fluorescence, FDSS; stronger effect = lower value; inhibition of EC80 agonist-evoked calcium signal | activity change, negative = inhibition, % (concentration not given with the values) | 390,000 tested, 0.02% active | AID 624415, 2012; in the data active means activity change below about -50%; inconclusive means about -30% to -50%; inactive means above about -30%;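 also: stimulus is agonist 54-4 at its EC80 concentration; % is scaled to controls: 0 for no effect and ±100 for the full control effect; compound concentration not given in the record; the text of the record puts the active cut at -80%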
Target sequence (Q9GZU1 whole entry, looked up): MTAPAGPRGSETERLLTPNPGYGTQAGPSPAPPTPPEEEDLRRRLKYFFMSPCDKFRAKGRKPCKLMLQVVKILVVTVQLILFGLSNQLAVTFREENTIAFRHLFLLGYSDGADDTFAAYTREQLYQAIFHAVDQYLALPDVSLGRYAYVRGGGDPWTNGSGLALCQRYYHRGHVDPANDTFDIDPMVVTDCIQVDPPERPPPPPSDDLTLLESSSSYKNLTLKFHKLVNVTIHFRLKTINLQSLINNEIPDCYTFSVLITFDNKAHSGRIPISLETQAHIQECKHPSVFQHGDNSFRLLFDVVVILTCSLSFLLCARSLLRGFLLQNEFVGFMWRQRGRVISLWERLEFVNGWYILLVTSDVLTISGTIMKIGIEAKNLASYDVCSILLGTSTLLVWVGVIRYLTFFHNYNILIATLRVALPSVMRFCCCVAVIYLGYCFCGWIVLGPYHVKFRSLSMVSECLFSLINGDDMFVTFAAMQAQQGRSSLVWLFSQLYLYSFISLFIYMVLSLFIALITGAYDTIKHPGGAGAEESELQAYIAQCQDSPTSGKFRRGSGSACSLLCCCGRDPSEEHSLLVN
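TRPML1-DL cells, Tet-induced overnight (~16 h, 37 °C) at 1,500 cells/well, were loaded with Ca8 no-wash dye plus quencher for 45-90 min at room temperature. Compounds were pinned during FDSS kinetic reading; agonist 54-4 at EC80 (4 uM final) then added.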
PINK1 modulator: A Quantitative High throughput Screen to Identify Chemical Modulators of PINK1 Expression; 410,000 tested, 0.2% active; PINK1 immunofluorescence, high-content cytometry, 24 h; AID 624263, 2012; Potency, µM (titrated, usually from 76.6 µM), for inactives: at the top dose activation (PINK1 increase), hits mostly activators; active = well fitted activation curve with a large enough effect; inconclusive = small, poorly fitted or top-dose-only effect; inactive = flat fitted curve, though single readings scatter; cell line not stated here;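 also: potency is read from the fitted curve at half-maximal effect; % of control where 0% means no effect; nearly all actives have a fitted effect of over 65% in size; a mitochondrial uncoupler was the plate control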
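PINK1 protein level read as immunofluorescence by microplate cytometer in a fixed, stained stable cell line after 24 h exposure to five compound concentrations, with CCCP as control.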
TRPML1 ag: qHTS for Agonists of the Human Mucolipin Transient Receptor Potential 1 (TRPML1); Mucolipin-1 (Homo sapiens), Q9GZU1; TRPML1-expressing cells, Ca2+ dye fluorescence, FDSS; host cell line not named in the record; reference of the full effect not given here; activation, % (no concentration beside the values); 410,000 tested, 0.12% active; in the data active = activation above about 50%; inconclusive = about 30% to 50%; inactive = below about 30%; also: 0% is about no effect; the text of the record puts the active cut at 80%
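Kinetic FDSS Ca2+ read in Tet-induced TRPML1-DL cells (ABD Ca8 dye plus quencher, 45-90 min RT loading): baseline, then compound, then 110 s agonist window; EC80 agonist 54-4 at 4uM final added afterwards for a 110 s antagonist window.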
D2 ag: Beta-Arrestin HTS for Positive Allosteric Modulators of the Human D2 Dopamine Receptor: Agonists. D(2) dopamine receptor (Homo sapiens), P14416. DiscoveRx PathHunter D2 beta-arrestin, luminescence, 90 min; 100% = 57 uM dopamine signal. activation, % (test concentration not listed). 360,000 tested, 0.084% active; in the data active = activation above about 40%; inconclusive = about 15% to 40%; inactive = below about 15%; also: compound concentration not given in the record; the text of the record calls up to 30% inactive
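Agonist mode: compounds alone added to overnight-plated D2 PathHunter cells for 90 min at 37 C, with 57 uM final dopamine (EC100) defining full response. Beta-arrestin recruitment detected by chemiluminescent reagent, read after 1 h at ambient temperature.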
Six1-Eya2 inh: qHTS Assay for Inhibitors of the Six1/Eya2 Interaction; AlphaScreen GST-Six1/His-Eya2 binding, biochemical; stronger effect = lower value; control for the full effect not named in the record; activity change, % (test concentration not listed); 360,000 tested, 0.56% active; Homeobox protein SIX1 (Homo sapiens) + Protein phosphatase EYA2 (Homo sapiens), …; in the data active = activity change below about -65%; inconclusive = about -30% to -65%; inactive = above about -30%; also: % is scaled to controls: 0 for no effect and ±100 for the full control effect; compound concentration not given in the record
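AlphaScreen with GST-Six1 and His-Eya2 (5X mix: 250 nM and 500 nM), glutathione donor and nickel acceptor beads; buffer 50 mM Tris pH 8.0, 300 mM NaCl, 1 mM TCEP; 1 h at 37 C in the dark.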
Active calls of the source: *; ? = inconclusive; · = not tested or not shown; & = joins results of further samples; [ ] = another dose, or the depositor's remark.

canonical_smiles | D2 potentiator | TRPML1 blocker | PINK1 modulator | TRPML1 ag | D2 ag | Six1-Eya2 inh
Cc1cc(-c2csc(Nc3ccccn3)n2)ccc1F | -29 | -17 | ? | 1.4 | 8.5 | -9
O=C(CN1C(=O)c2cccc3cccc1c23)N1CCN(Cc2ccc3c(c2)OCO3)CC1 | -6 | -8 | 0.5% | 0.2 | -0.2 | -1
Cc1ccc(C)c2[nH]c(=O)c(CN(CCN3CCCC3)C(=O)Nc3cccc(Cl)c3)cc12 | -1 | 9 | 1.8% | 0.1 | 3.0&14 | -1
NC1=C(Cl)C(=O)c2ccc(S(N)(=O)=O)cc2C1=O | 58* | 0 | -1.7% | -0.7 | 5.9 | -18
COc1ccc(OC)c(NC(=O)Nc2cccc(OCc3cc(=O)n4cc(C)ccc4n3)c2)c1 | · | -10 | 0.4% | 0.0 | · | ·
CCC(=O)c1ccccc1OCCN1CCN(CC)CC1 | -13 | -9 | -0.6% | 0.2 | 1.3 | 18
CC(C)N(CCO)C(=O)C(c1ccccc1)c1ccccc1 | -1 | -9 | -1.7% | -0.4 | -3.4 | 1
Cc1ccc(S(=O)(=O)N(C)C)cc1NC(=O)COC(=O)Cc1ccsc1 | -19 | 2 | -2.4% | 0.5 | 0.6 | 5
CSc1nnc(-c2ccc(Cl)cc2Cl)o1 | 8 | -14 | 0.7% | -0.4 | -2.1 | 3
CC1=Nc2ccccc2/C1=C\c1sc(Nc2ccc(C)cc2)nc1O | -41 | 3 | -1.1% | 1.3 | -0.5 | -20

Further entries
canonical_smiles | D2 potentiator | TRPML1 blocker | PINK1 modulator | TRPML1 ag | D2 ag | Six1-Eya2 inh
O=C(Nc1nnc(C2CCCC2)s1)C1CCC1 | -4 | -1 | 2.2% | -0.3 | -0.3 | -2
CC1CCCCC1NC(=O)CCn1ccc2cc(S(=O)(=O)N3CCCC3)ccc21 (stereo not given) | 2 | -14 | 0.4% | 2.3 | 6.6 | 5
Cc1ccccc1C(=O)N1CCC1(C)C(=O)NC(C)C (stereo not given) | -6 | · | 2.3% | -0.4 | -6.0 | 6
COc1ccc(C(=O)Cn2c(NCCCO)nc3ccccc32)cc1OC | -2 | 29 | -1.4% | 3.4 | -0.3 | 1
Cc1ccccc1C(=O)NCCCNC(=O)c1cnccn1 | -2 | 4 | 0.7% | 1.2 | -5.1 | 10
CC(NC(=O)CCC(=O)N1CCCCCC1)c1ccccc1 (stereo not given) | 3 | 2 | 0.1% | 0.3 | -0.1 | 0
CCCN(CCC)S(=O)(=O)c1ccc(C(=O)N2CCC(=O)c3ccccc32)cc1 | -10 | 42 | 1.2% | 0.9 | -0.7 | 3
COc1ccc(NC(=O)Cn2c(=O)n(-c3ccc(CC(=O)NCc4ccco4)cc3)c(=O)c3ccccc32)cc1 | -11 | -8 | 8.3% | 0.3 | -2.5 | -1
COc1ccc(C2/C(=C(/O)c3cnn(-c4ccccc4)c3C)C(=O)C(=O)N2CCN(C)C)cc1OC (stereo not given) | 2 | -8 | 3.8% | 0.0 | 2.2 | 5
O=C(O)CC(NC(=O)/C(=C/c1ccccc1)NC(=O)c1ccccc1)c1ccccc1 (stereo not given) | -1 | 10 | 0.8% | 0.0 | 0.8 | 6

(more compounds)
canonical_smiles | D2 potentiator | TRPML1 blocker | PINK1 modulator | TRPML1 ag | D2 ag | Six1-Eya2 inh
COc1cc(OC)c(C2C=CC(=O)CC2)c(OC)c1 (stereo not given) | · | · | 1.1% | -0.9 | · | 6
NC(=O)C1CCCN(C(=O)c2ccc(Cl)c(S(=O)(=O)N3CCc4ccccc43)c2)C1 (stereo not given) | 0 | 6 | 9.1% | 0.0 | 0.5 | -3
Cc1cc(NC(=O)c2ccc([N+](=O)[O-])o2)ccc1NC(=O)c1ccco1 | 0 | 16 | 0.2% | -0.1 | 3.7 | -4
CCOC(=O)C1(S(=O)(=O)c2ccc(Cl)cc2)CCN(Cc2ccc(C)cc2)CC1 | -5 | 89 | 5.3%[38.3 µM] | 1.2 | -0.8 | -12
O=C(NCCCN1CCOCC1)c1cc(-c2ccc(F)cc2)on1 | -9 | 48 | 5.8%[38.3 µM] | 0.5 | -1.5 | 2
CCOC(=O)c1ccc(NC(=O)Cc2coc3cc4c(cc23)CCC4)cc1 | -2 | 17 | 1.5% | 6.7 | -1.2 | 1
CCC1CCCCN1C(=O)CSc1nnc(-c2cccc(Cl)c2)o1 (stereo not given) | -3 | 10 | 0.3% | 0.3 | 9.5 | -3
Cc1cc(C)cc(OCCn2nnc3ccccc32)c1 | -1 | 12 | 0.8% | 2.5 | 5.5 | 4
O=C(COc1ccccc1)N(Cc1ccco1)c1ccc(O)cc1 | -29 | 19 | -0.3% | 0.0 | -0.5 | 9
COc1ccc(C2=NN(S(C)(=O)=O)C(c3cccs3)C2)cc1OC (stereo not given) | 11 | -12 | -0.4% | 1.4 | 4.5 | -2

New compounds follow
canonical_smiles | D2 potentiator | TRPML1 blocker | PINK1 modulator | TRPML1 ag | D2 ag | Six1-Eya2 inh
Cc1ccc(S(=O)(=O)N[C@H](C(=O)OCC(=O)NC(=O)C2CCCCC2)C(C)C)cc1 | 6 | 3 | 1.3% | 0.9 | 1.9 | 3
COc1ccc(S(=O)(=O)N2CCC(C(=O)NCCc3ccc4c(c3)OCO4)CC2)cc1 | -1 | 11 | -4.4% | 4.6 | -1.1 | -1
CC1(C)Cc2ccccc2C(/C(=N\Nc2cccc(Cl)c2)C(N)=O)=N1 | -5 | -16 | -3.6% | -0.3 | -7.1 | ?
O=C(CSc1nnc(-c2ccccc2F)n1C1CC1)NCc1ccco1 | -2 | -5 | -1.3% | 0.3 | 9.7 | -1
O=C(CSc1ccc2ccccc2n1)NCCCN1CCCC1=O | 1 | -15 | 0.1% | 0.2 | -1.0 | 2
O=C(Nc1cccc(Cl)c1)N1CCC(CN2CCOCC2)CC1 | · | 9 | -0.1% | -0.1 | · | ·
CCCCOCCCNC(=O)CN1C(=O)c2ccccc2C1=O | -21 | 0 | · | 0.1 | -0.9 | -2
Cn1cccc1CC(=O)N/N=C/c1ccc(Cl)cc1 | -6 | -2 | 2.1% | 0.2 | -4.5 | 7
Cc1ccc(-c2nc3ccccc3c(=O)n2N)cc1 | 8 | 16 | 0.3% | -0.3 | -2.6 | 7
CC(C)(C)CN1C(N)=NC[C@@H]1Cc1ccc(O)cc1 | -4 | 15 | 0.1% | -0.6 | -1.1 | -24

The results go on.
canonical_smiles | D2 potentiator | TRPML1 blocker | PINK1 modulator | TRPML1 ag | D2 ag | Six1-Eya2 inh
COc1ccc(N2C(=NC(=O)C3CCCCC3)SC3CS(=O)(=O)CC32)cc1OC (stereo not given) | 4 | -6 | 0.3% | -0.8 | 1.0 | 3
O=C(NCc1cccnc1)c1cn(-c2ccccc2)nc1-c1ccccc1 | -22 | 3 | -1.3% | 2.6 | -5.3 | -1
CC1CC(C)CN(CC(=O)c2c[nH]c3ccccc23)C1 (stereo not given) | -2 | 6 | 2.0% | 1.2 | -2.1 | -2
O=S(=O)(Nc1ccc2c3c(cccc13)CC2)c1ccc(F)cc1 | -1 | 26 | 12% | 6.3 | -3.3 | -8
Cc1ccccc1C(=O)N1CCC(C(=O)N2CCN(Cc3ccc4c(c3)OCO4)CC2)CC1 | 0 | -6 | -0.9% | 1.0 | 1.1 | -3
COC(=O)[C@H](CO)N1C(=O)[C@@H]2[C@H](C1=O)C1C=C[C@H]2C1 | -5 | 3 | 0.2% | -0.2 | -7.6 | 9
Cc1ccc(NC(=O)CCc2c(C)nn(-c3ccc(N4CCCCC4)nn3)c2C)cc1C | 2 | -12 | 0.6% | 0.2 | 0.0 | 11
O=C(Nc1c(C(=O)N2CCOCC2)cnn1-c1ccccc1)c1ccc([N+](=O)[O-])cc1 | -9 | 3 | 0.8% | -0.6 | 6.9 | 4
CC(C)(C)c1ccc(C(=O)NCCC(=O)NNC(=O)COc2ccccc2F)cc1 | 13 | -8 | 0.8% | 0.3 | 1.1 | 7
CC1(C)CC(=O)C2=C(C1)N(Cc1ccc(F)cc1)C(=O)C2(NC(=O)c1cccnc1)C(F)(F)F (stereo not given) | -18 | 35 | · | 0.7 | -2.5 | 1

Continuation.
canonical_smiles | D2 potentiator | TRPML1 blocker | PINK1 modulator | TRPML1 ag | D2 ag | Six1-Eya2 inh
COc1cccc(C2C(C(=O)c3cccs3)=C(O)C(=O)N2CCN(C)C)c1OC (stereo not given) | -13 | 5 | 0.6% | 0.1 | -1.8 | 2
CN(CC(=O)Nc1ccccc1Cl)C(=O)COC(=O)C1CC1 | 8 | -18 | -0.4% | 0.8 | -1.4 | 5
COc1cc(NC(=O)CCc2nnc3ccc(N4CCCCC4)nn23)cc(OC)c1OC | -9 | 1 | 0.7% | -0.2 | -0.7 | 1
O=C1CCN(Cc2ccccc2)CCN1[C@H](CSc1ccccc1)Cc1ccccc1 | -2 | -4 | 1.9% | 0.3&0.6 | 2.2 | -6
c1coc(CNc2nc3ccccc3n2CCN2CCOCC2)c1 | -23 | 7 | · | -0.4 | -0.8 | 1
NC1=NC2(CCCCC2)N=C(Nc2ccc(Br)cc2)N1 | -21 | -9 | 9.2% | -0.4 | -1.8 | -2
CCOc1ccc(CCNC(=O)c2csc3c2CCCCC3)cc1 | · | 5 | 2.8% | 3.1 | · | ·
COc1cccc(C(=O)O/N=C(\N)c2ccccn2)c1OC | -10 | -9 | 1.5% | 0.6 | ? | -1
CCCc1ccc(OC(=O)CSc2nnc(-c3cccs3)o2)cc1 | · | 43 | 1.0% | 0.9 | · | ·
CC1=Nc2ccccc2/C1=C/c1sc(=S)n(-c2cccc(C(=O)O)c2)c1O | -1 | 12 | -1.2% | 0.0 | -4.6 | ?

Part of the list above, reduced to PINK1 modulator, D2 potentiator and TRPML1 blocker:
Molecule	PINK1 modulator	D2 potentiator	TRPML1 blocker
c1coc(CNc2nc3ccccc3n2CCN2CCOCC2)c1	·	-23	7
NC1=NC2(CCCCC2)N=C(Nc2ccc(Br)cc2)N1	9.2%	-21	-9
CCOc1ccc(CCNC(=O)c2csc3c2CCCCC3)cc1	2.8%	·	5

(more compounds)
canonical_smiles | D2 potentiator | TRPML1 blocker | PINK1 modulator | TRPML1 ag | D2 ag | Six1-Eya2 inh
Cc1ccc(CNS(=O)(=O)c2cc3c(cc2Cl)NC(=O)CO3)o1 | · | -23 | -1.8% | 0.1 | · | ·
COc1ccc2[nH]c(-c3ccccc3)cc2c1 | -4 | 8 | 4.7% | 0.3 | -4.0 | -5
O=C(NCCCc1nc2ccccc2n1Cc1ccc(Cl)cc1Cl)c1ccco1 | · | 3 | -1.0% | -1.2 | · | ·
CC(=O)Nc1ccc(NC(=O)CSCc2cnn(-c3ccccc3)c2-n2cccc2)cc1 | -9 | -8 | -1.1% | 2.4 | -2.3 | -5
